LANA-H2A inh: blocks KSHV LANA binding to histone H2A/H2B. inhibition, % (concentration not given with the values). cell-free LANA-H2A/H2B peptide, fluorescence polarization. Q9QR71. hit rate 0.6% among 320,000. AID 2629; in the data active = inhibition mostly above about 10%, no sharp cut-off; inactive = mostly below about 6.7%;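 also: stock transfer was 7.5 nL into about 10 µL; 0% = median of vehicle wells and 100% = median of positive control wells; one replicate is shown; the record names a cut of 25% in any replicate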
UCH37 inh: inhibitors of human deubiquitinating enzyme UCH37; Q9Y5K5; purified proteasome/UCH37, Ub-AMC cleavage fluorescence; inhibition, % (no concentration beside the values); hit rate 0.33% among 330,000;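 active = mean of two replicates above 20%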;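 also: 0% = compound-free wells with enzyme and 100% = wells lacking proteasome; stock transfer was 100 nL into about 20 µL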
Target sequence (Q9Y5K5 whole entry, looked up): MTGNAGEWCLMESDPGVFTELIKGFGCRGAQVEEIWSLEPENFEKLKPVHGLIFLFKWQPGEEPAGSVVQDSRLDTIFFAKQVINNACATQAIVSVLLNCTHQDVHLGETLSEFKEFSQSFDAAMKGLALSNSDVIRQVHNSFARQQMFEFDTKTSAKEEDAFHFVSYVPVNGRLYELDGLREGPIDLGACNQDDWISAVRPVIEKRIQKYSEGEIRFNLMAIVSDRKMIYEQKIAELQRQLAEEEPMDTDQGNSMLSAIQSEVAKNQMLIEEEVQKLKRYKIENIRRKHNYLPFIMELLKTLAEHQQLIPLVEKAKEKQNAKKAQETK
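Material: human UCH37 enzyme supplied as purified proteasome complex / Amount: 0.15 nM proteasome as dispensed / Buffer or medium: pH 7.4 Tris-HCl (50 mM) with ovalbumin, ATP-MgCl2, DTT / Times: preincubation 30 min, reaction 25 min, room temperature / Technique: AMC fluorescence from Ub-AMC cleavage, excitation 355 nm, emission 460 nm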
Vif TR-FRET: HIV-1 Vif–A3G interaction blockers – biochemical, TR-FRET, GST-Vif 1-94, biotin-A3G peptide, dose response retest, primary screen (AID 1117319); TR-FRET GST-Vif / biotin-A3G peptide binding; higher % means a stronger effect; test concentration not given here; strong numbers were not always called active; one-dose inhibition, %; IC50 in µM for titrated hits; hit rate 0.57% among 260,000;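 active = above the screen mean plus three standard deviations and confirmed in dose response; inconclusive = results disagree or hit not tested in dose response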;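 also: Vif residues 1-94 fused to GST binding biotinylated APOBEC3G peptide 110-148; 0% = full assay without inhibitor and 100% = GST in place of GST-Vif; retest series ran down from 100 µM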
A1 inh: inhibitors of the anti-apoptotic protein A1, read as caspase activation | MEF A1-2A-BIM cells, Caspase-Glo 3/7 luminescence, 3 h; percent of clofoctol response, vehicle zero | caspase activation, % (test concentration not listed) | hit rate 0.066% among 330,000 | AID 2462;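 active = over half of replicate activation scores above 10%, or exactly half above 10 with the replicate mean above 10; inconclusive = replicate mean below 10 yet half the replicates above 10; inactive = over half of replicates below 10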;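 also: wells of about 30 µL received 50 nL stock; many hits fall short of the cut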
B2AR ag: activates human beta-2 adrenergic receptor causing internalization | P07550 | Am2.2-beta2AR cells, FAP receptor internalization, flow cytometry; reference of the scale not given here | response, % (no concentration beside the values) | hit rate 0.43% among 340,000;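 active = response above a set limit, near 3 SD of response in nonfluorescent compounds, cut at about 42% in these data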;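 also: stock transfer was 100 nL into about 11 µL; a reference agonist was the positive control; negative values mostly stem from fluorescent compounds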
Target sequence (P07550 whole entry, looked up): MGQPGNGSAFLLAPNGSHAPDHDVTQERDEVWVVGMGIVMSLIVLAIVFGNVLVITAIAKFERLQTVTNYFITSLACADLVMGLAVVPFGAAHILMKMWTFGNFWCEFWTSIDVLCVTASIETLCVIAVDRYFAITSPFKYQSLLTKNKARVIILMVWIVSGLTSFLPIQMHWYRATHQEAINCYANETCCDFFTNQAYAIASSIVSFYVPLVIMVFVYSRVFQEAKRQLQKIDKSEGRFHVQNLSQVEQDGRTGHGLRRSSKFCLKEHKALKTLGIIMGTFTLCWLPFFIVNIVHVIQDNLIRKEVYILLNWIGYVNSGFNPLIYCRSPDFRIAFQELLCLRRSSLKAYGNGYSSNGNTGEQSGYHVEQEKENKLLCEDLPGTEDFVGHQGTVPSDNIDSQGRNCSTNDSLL
Ecoli growth: E. coli growth inhibition; Escherichia coli growth, OD600, 23 h; hits give low values; OD600 absorbance (test concentration not listed); hit rate 0.21% among 330,000;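 active = OD600 absorbance below the run mean of sample wells minus 3.6 SD, in any replicate, cut at about 0.56 in these data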;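 also: stock transfer was 300 nL into about 60 µL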
HNF4A DNA FP: change in binding of human HNF4 alpha to DNA; P41235; HNF4a-FITC DNA binding, fluorescence polarization, 1 h; activity change, % at 10 µM; hit rate 0.3% among 360,000; AID 1224865; in the data active = activity change above about 30%, passing the limit was not always enough;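 also: controls were the assay level and a saturating level of protein; the project sought stronger binding though the title names inhibitors; some compounds called inactive have numbers as strong as hits; positive values seem to mean higher polarization but the record does not say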
The depositor's hits bear a star; ? = inconclusive; . = no result given. No enrichment for hits (roughly 2.1% active in at least one column).

SMILES | LANA-H2A inh | UCH37 inh | Vif TR-FRET | A1 inh | B2AR ag | Ecoli growth | HNF4A DNA FP
NC(=O)CN(c1ccccc1)C1SC(=O)N(Cc2ccccc2)C1=O (stereo not drawn) | -2.9 | 0.3 | 8% | -0.4 | -9 | 0.69 | -2.2
O=c1c2cnn(-c3ccc(F)cc3)c2ncn1Cc1cccnc1 | -3.3 | 2.7 | 1% | -1.1 | 2 | 0.7 | -2.9
Cc1ccc(-c2c(C(=O)N/N=C/c3ccco3)nnn2-c2nonc2N)cc1 | 0.5 | . | -7% | 0.3 | -8 | . | 1.5
CCn1c(=O)c(C(=O)CN2c3ccccc3CC2C)c(N)n(Cc2ccccc2)c1=O (stereo not drawn) | -1.6 | 3.6 | . | -0.6 | 11 | 0.73 | 0.5
CSc1ccccc1C(=O)N1CCCC(CCC(=O)NCc2ccc(F)c(F)c2)C1 (stereo not drawn) | -4.8 | 4.2 | -6% | -0.3 | 1 | 0.73 | 1.4
CCCN(CCC)CCCNc1ccc2nnc(-c3ccc(F)cc3)n2n1 | -1.2 | 2.4 | 64% | 0.5 | 9 | 0.7 | -1.0
O=C(NC1CCCc2ccccc21)c1ccc2c(c1)OCO2 (stereo not drawn) | 4.3 | 1.6 | -3% | -0.8 | 3 | 0.71 | 0.9
COc1cc(OC)cc(C(=O)NCC(=O)OCC(=O)NC(C)CCc2ccccc2)c1 (stereo not drawn) | -2.1 | -0.1 | . | 1.6 | 1 | 0.73 | 0.0
CCN(C(=O)COC(=O)CCc1c[nH]c2ccccc12)c1c(N)n(Cc2ccccc2)c(=O)[nH]c1=O | -0.4 | 0.2 | 8% | 0.3 | -1 | 0.7 | 3.0
COC(=O)c1cc(-c2ccc(Br)cc2)n[nH]1 | -0.7 | -4.3 | ? | -0.6 | 5 | 0.72 | -3.0

Continued (two carried over from the part before).
SMILES | LANA-H2A inh | UCH37 inh | Vif TR-FRET | A1 inh | B2AR ag | Ecoli growth | HNF4A DNA FP
CCN(C(=O)COC(=O)CCc1c[nH]c2ccccc12)c1c(N)n(Cc2ccccc2)c(=O)[nH]c1=O | -0.4 | 0.2 | 8% | 0.3 | -1 | 0.7 | 3.0
COC(=O)c1cc(-c2ccc(Br)cc2)n[nH]1 | -0.7 | -4.3 | ? | -0.6 | 5 | 0.72 | -3.0
COCCN(C(=S)Nc1c(C)cccc1C)C(C)c1ccco1 (stereo not drawn) | 1.1 | -1.5 | -5% | -0.1 | 7 | 0.7 | 1.0
CC(C)NCC(O)COC1C2CC3CC(C2)CC1C3 (stereo not drawn) | -12 | 0.0 | -12% | 0.2 | -2 | 0.69 | 4.8
O=C(c1ccc(NS(=O)(=O)c2ccc(Cl)c(Cl)c2)cc1)N1CCOCC1 | . | -2.2 | 3% | . | -2 | 0.71 | 1.3
COc1ccc(-c2nc(CN3CCN(Cc4cccc(F)c4)CC3)c(C)o2)cc1 | 1.8 | 0.4 | . | 0.5 | -9 | 0.68 | -1.2
CCOc1ccc(Cl)cc1S(=O)(=O)N1CCN(c2ccc(C)c(C)c2)CC1 | -6.6 | 6.2 | 3% | -0.2 | 20 | 0.72 | -0.5
COc1cc(C(=S)N2CCOCC2)ccc1OC(=O)c1ccc([N+](=O)[O-])cc1[N+](=O)[O-] | -4.1 | 8.7 | 8% | -0.2 | 9 | 0.72 | -0.2
O=C(CSc1nnc(NC(=O)c2ccccc2F)s1)Nc1ccccc1F | 3.3 | -1.7 | -53% | 0.4 | 1 | 0.69 | 3.1
CC(C)CNC(=S)Nc1ccc(Oc2ccccc2)cc1 | -5.3 | 0.4 | . | 0.4 | -19 | 0.64 | 2.2
Cc1cc(-c2n[nH]c(=S)n2CC(C)C)cs1 | -7.5 | -0.3 | -2% | 2.5 | 0 | 0.72 | -1.2
COc1ccc(-n2c(CNC(=O)c3cccs3)n[nH]c2=S)cc1 | 4.9 | 5.0 | 3% | -0.2 | 2 | 0.69 | -3.0
COc1cc(S(=O)(=O)n2nc(C)cc2C)c(OC)cc1Cl | -1.4 | 3.5 | 13% | 0.6 | 10 | 0.67 | -0.9
O=S(=O)(NCCCc1ccccc1)c1ccc(Cl)cc1 | 1.4 | -1.6 | . | -1.2 | -3 | 0.67 | 0.3
COC(=O)c1ccc(CSc2nnnn2-c2ccc(C)cc2C)o1 | 1.2 | 1.5 | 2% | -0.3 | 9 | 0.69 | 1.7
CN1CCN(S(=O)(=O)c2cc(C(F)(F)F)ccc2Cl)CC1 | 2.0 | 1.8 | . | 1.0 | -4 | 0.65 | -0.5
Cc1ccc(S(=O)(=O)NC2c3cccc4cccc(c34)C2Sc2ncccn2)cc1 (stereo not drawn) | -0.6 | 4.3 | ? | -0.1 | 1 | 0.68 | 1.7
Oc1ccc(/C=C/c2cnccn2)cc1 | -0.2 | 4.8 | 77% | -2.7 | -4 | 0.66 | -3.3
CCOc1ccccc1N1CCN(C(=O)NC2CCCCC2)CC1 | 1.9 | 2.8 | . | -0.9 | 3 | 0.72 | -0.6
CN(C)c1ncc(C2=C(Cl)C(=O)C(N3CCCC3)=C(Cl)C2=O)s1 | 0.6 | -147 | 0.38µM* | 0.9 | 76* | 0.7 | -9.7
O=C(O)c1cccc(Nc2c([N+](=O)[O-])c(=O)oc3ccccc23)c1 | 7.4 | 1.9 | 20% | 0.6 | -8 | 0.68 | -0.5
NC(N)=N/N=C/c1ccc(OCc2ccccc2Cl)cc1 | -4.1 | . | -3% | 0.7 | 53* | . | 6.1
COc1ccc(CNC(=O)CN(Cc2ccc(Cl)cc2)S(=O)(=O)c2ccccc2)cc1 | 3.9 | 4.7 | 6% | 3.9 | -26 | 0.71 | -1.7
CCOC(=O)N1CCC(NC(=O)CCN2C(=O)COc3ccccc32)CC1 | -2.0 | 5.3 | -2% | 0.5 | -1 | 0.67 | -2.5
CCS(=O)(=O)N1CCC(C(=O)NCCc2ccc(C)cc2)CC1 | -3.1 | -0.8 | -3% | -0.3 | -1 | 0.68 | 0.6
CC(C)NC(=O)N1CCOCCOCCN(C(=O)NC(C)C)CCOCCOCC1 | . | 3.5 | -4% | . | 4 | 0.79 | 3.5
COc1ccc(C(=O)C2CCN(S(=O)(=O)c3ccc4c(c3)OCCO4)CC2)cc1 | 1.9 | 1.0 | 6% | 0.8 | -1 | 0.75 | 1.2
NC(N)=NC(=O)c1nc(Cl)c(N2CCCCCC2)nc1N | -1.8 | 5.8 | . | 0.5 | 10 | . | -2.5
O=C(NC(CC1CCCCC1)C(=O)O)c1ccccc1 (stereo not drawn) | 2.8 | 0.5 | . | 0.8 | 1 | 0.71 | -2.5
CCNC(=S)N/N=C/c1sc(N2CCCCC2)nc1-c1cccs1 | -0.2 | . | 1% | -4.8 | 17 | . | 29
O=C(O)c1cc(O)ccc1-c1ccc(O)cc1 | -4.1 | 4.2 | 2% | 0.2 | -1 | 0.72 | 3.4
CC(CNC(=O)C1CCCN(S(=O)(=O)N2CCOCC2)C1)c1ccccc1 (stereo not drawn) | -1.6 | 1.1 | . | -0.1 | 4 | 0.59 | 0.1

Looked up above:
NC(N)=NC(=O)c1nc(Cl)c(N2CCCCCC2)nc1N – LANA-H2A inh = -1.8
CCS(=O)(=O)N1CCC(C(=O)NCCc2ccc(C)cc2)CC1 – A1 inh = -0.3
O=C(NC(CC1CCCCC1)C(=O)O)c1ccccc1 (stereo not drawn) – LANA-H2A inh = 2.8
O=C(O)c1cc(O)ccc1-c1ccc(O)cc1 – HNF4A DNA FP = 3.4

Remaining list, next part
SMILES | LANA-H2A inh | UCH37 inh | Vif TR-FRET | A1 inh | B2AR ag | Ecoli growth | HNF4A DNA FP
Cc1ccc([N+](=O)[O-])cc1Nc1nc(N2CCCC2)nc(N2CCCC2)n1 | 4.1 | 3.1 | -5% | 2.2 | -2 | 0.7 | 2.0
CCCCn1nc2cc(C(=O)NCc3ccc(OC)cc3)ccc2c1OCC | -4.2 | . | -3% | -0.1 | -4 | . | -1.1
CCCCCCC1CCC(C(=O)NC(CCSC)C(=O)NC(C(=O)OC)C(C)C)CC1 (stereo not drawn) | 2.5 | 2.2 | -5% | 0.9 | 10 | 0.75 | 2.1
Cc1ccccc1-n1nc2c(c1NC(=O)CC(C)C)CS(=O)C2 (stereo not drawn) | -2.7 | 3.7 | -4% | 0.1 | -3 | 0.71 | -0.1
Cc1sc2ncn(CC(=O)Nc3cccc(S(N)(=O)=O)c3)c(=O)c2c1-c1ccccc1 | 2.3 | 0.3 | -2% | -0.2 | -12 | 0.68 | 0.2
COc1cc2c(cc1OC)-c1cc(N3CCc4ccccc43)nc(=O)n1CC2 | 8.3 | -90 | -5% | -0.2 | 8 | 0.67 | -0.6
COc1ccc(NC(=O)CN(C)C(=O)CN2C(=O)NC3(CCCC3)C2=O)cc1 | -1.1 | . | . | -0.6 | 1 | . | -5.1
COc1cccc(NC(=S)N(Cc2ccc(C(=O)O)cc2)Cc2ccc(OC)c(OC)c2)c1 | 2.5 | 4.6 | -8% | 1.0 | 10 | 0.67 | -0.5
COc1ccc(C(=O)c2ccccc2)cc1 | 1.0 | 1.6 | 6% | -0.9 | 25 | 0.65 | 4.5
O=C(CC1SC(=NCCc2ccccc2)N(/N=C/c2cccs2)C1=O)Nc1ccc(Cl)cc1 (stereo not drawn) | -0.3 | . | 1% | 0.1 | -3 | . | -1.4
Cc1n[nH]c(=O)c2c(NC(=O)CSc3c(Cl)cccc3Cl)oc(C)c12 | -12 | -2.7 | 1% | 0.5 | 27 | 0.72 | -4.4
C=C(C)C1CC=C(C)/C(=N/NC(=O)CCC(=O)Nc2ccccc2Cl)C1 (stereo not drawn) | -2.1 | . | . | 0.3 | -30 | . | 1.6
O=C(CSc1c(F)c(F)cc(F)c1F)Nc1ccc(C2SCCS2)cc1 | -0.9 | 0.6 | 0% | -1.4 | 15 | 0.66 | 3.8
CN(CCNC(=O)C1CC(=O)N(C2CCCC2)C1)Cc1ccccc1 (stereo not drawn) | . | 5.0 | . | . | -4 | 0.72 | 0.2
Cc1cccc(NC(=O)c2sc3nc(N)c(C#N)cc3c2N)c1 | -16 | 1.8 | . | -0.4 | -2 | 0.67 | 3.1
C=CCNC(=O)/C(C#N)=C/c1c(N2CC(C)OC(C)C2)nc2ccccn2c1=O (stereo not drawn) | 4.9 | -62 | . | -0.3 | -14 | 0.7 | -1.9
CCN(CC)c1ccc(NC(=S)NC(=O)c2cccs2)cc1 | 0.9 | 1.0 | ? | 0.2 | 8 | 0.66 | 0.9
COc1ccc(C(=O)NCCCN(C)CCCNC(=O)c2ccc(OC)cc2)cc1 | -2.9 | 2.3 | . | -0.1 | 1 | 0.63 | 2.8
COc1ccccc1NCc1nnc(SCC(=O)N/N=C/c2ccco2)n1-c1ccc(Cl)cc1Cl | -7.0 | . | 4% | 1.1 | 1 | . | -2.8
O=C1NCCC/C1=N/Nc1ccc(F)cc1 | 4.4 | . | 11% | 0.5 | . | . | .
O=[N+]([O-])c1ccc(C2=Nn3cnnc3SC2)cc1 | 4.3 | 5.0 | 14% | -0.4 | -6 | 0.67 | 1.5
COc1cccc(C(=O)O/N=C(\N)c2ccncc2)c1 | 2.2 | 3.3 | 0% | -11 | 9 | 0.72 | -2.3
COC(=O)c1cc(NC(=O)CC2C(=O)NCCN2C(=O)c2ccccc2)cc(C(=O)OC)c1 (stereo not drawn) | -3.0 | 5.9 | 18% | 0.3 | -15 | 0.73 | -2.2

Part of the list above, limited to HNF4A DNA FP:
| canonical_smiles | HNF4A DNA FP |
| --- | --- |
| O=C(CSc1c(F)c(F)cc(F)c1F)Nc1ccc(C2SCCS2)cc1 | 3.8 |
| CC(C)NC(=O)N1CCOCCOCCN(C(=O)NC(C)C)CCOCCOCC1 | 3.5 |

Screening data as filed in PubChem BioAssay.
